UUG fidelity: alters start codon recognition fidelity in yeast | S. cerevisiae UUG-firefly luciferase reporter, luminescence/redox ratio | hit rate 0.13% among 350,000 | activity score, % at 18.7 µM;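 active means replicate mean at a twofold rise or more, about +100% in these data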;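 further: firefly luciferase made from a UUG start codon reports start codon fidelity; reporter light over untreated wells divided by growth signal over untreated wells; some hits fall short of that in this replicate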
An asterisk follows results filed as active. An excerpt. The share of hits here may be higher or lower than overall.

No. | smiles | UUG fidelity
1 | CCNC(=O)C[C@@H]1CC[C@@H]2[C@H](COC[C@H](O)CN2C(=O)Nc2ccc(Cl)c(Cl)c2)O1 | -1
2 | CCCNC(=O)C[C@H]1CC[C@H]2[C@@H](COC[C@H](O)CN2C(=O)Nc2ccc3c(c2)OCO3)O1 | 4
3 | C[C@@H]1CN([C@H](C)CO)C(=O)c2cc(NC(=O)CCC(F)(F)F)ccc2O[C@@H]1CN(C)S(=O)(=O)c1cccs1 | -15
4 | Cc1cccc(S(=O)(=O)N2C[C@@H](O)COC[C@H]3O[C@H](CC(=O)NCCCN4CCOCC4)CC[C@@H]32)c1 | 10
5 | CCC(=O)Nc1ccc2c(c1)C(=O)N(C)C[C@H](OC)[C@H](C)CN(Cc1ccccc1C(=O)O)[C@H](C)CO2 | -12
6 | C[C@@H](O)C#Cc1ccc([C@H]2[C@@H](CO)N3CCCCN(C(=O)c4cccc(F)c4)C[C@H]23)cc1 | 23
7 | COCC#Cc1ccc([C@H]2[C@@H](CO)N3CCCCN(C(=O)CN(C)C)C[C@@H]23)cc1 | 5
8 | CCCC#Cc1ccc([C@H]2[C@H](CO)N3CCCCN(Cc4cncnc4)C[C@@H]23)cc1 | -10
9 | C[C@H]1CN([C@@H](C)CO)C(=O)c2cccc(NC(=O)c3nc4ccccc4s3)c2O[C@H]1CN(C)C(=O)NC1CCCCC1 | 6
10 | CO[C@H]1CN(C)C(=O)c2cc(NC(=O)Cc3ccccc3)ccc2OC[C@H](C)N(C(=O)c2ccccc2F)C[C@H]1C | -4
11 | C[C@@H](NC(=O)C[C@H]1C[C@@H]2c3cc(NC(=O)CC4CC4)ccc3O[C@@H]2[C@H](CO)O1)c1ccccc1 | -8
12 | CC(C)NC(=O)Nc1ccc2c(c1)CC(=O)N([C@@H](C)CO)C[C@@H](C)[C@@H](CN(C)Cc1ccc(Cl)c(Cl)c1)O2 | 1

No. | smiles | UUG fidelity
13 | Cc1noc(C)c1NC(=O)Nc1cccc2c1O[C@H](CN(C)S(=O)(=O)c1ccc(F)cc1)[C@H](C)CN([C@@H](C)CO)C2=O | -2
14 | C/C=C/c1ccc([C@@H]2[C@@H](CO)N[C@@H]2CN(C(=O)C2CCCC2)C(C)C)cc1 | -5
15 | COc1ccccc1CNC(=O)C[C@H]1CC[C@@H]2[C@H](COC[C@@H](O)CN2C(=O)Nc2ccc(Cl)cc2)O1 | 9
16 | Cc1ccccc1S(=O)(=O)N1C[C@H](O)COC[C@@H]2O[C@@H](CC(=O)N3CCCCC3)CC[C@H]21 | 5
17 | CCC(=O)N1C[C@H](C)[C@H](OC)CN(C)C(=O)c2cc(NC(=O)C3CCOCC3)ccc2OC[C@H]1C | -17
18 | CCCNC(=O)N1C[C@H]2[C@@H](c3ccccc31)[C@@H](CO)N2Cc1cccc(OC)c1 | -8
19 | COCCNC(=O)C[C@@H]1CC[C@H]2[C@@H](COc3ccc(NC(=O)c4cnccn4)cc3C(=O)N2C)O1 | 6
20 | COCC(=O)Nc1ccc2c(c1)C(=O)N(C)[C@@H]1CC[C@H](CC(=O)NCCCN(C)C)O[C@H]1CO2 | 0
21 | C[C@@H]1CN([C@H](C)CO)C(=O)c2c(c3ccccc3n2C)-c2ccccc2CO[C@H]1CN(C)S(=O)(=O)c1ccc(F)cc1 | 0
22 | CO[C@H]1CN(C)C(=O)c2cc(NC(=O)C3CC3)ccc2OC[C@H](C)N(C(C)=O)C[C@H]1C | 8
23 | O=C(c1ccccn1)N1C[C@@H]2[C@H](c3ccccc31)[C@H](CO)N2C(=O)Nc1ccccc1F | 10
24 | O=S(=O)(c1ccccc1)N1CCCCN2[C@H](CO)[C@H](c3ccc(-c4cncnc4)cc3)[C@@H]2C1 | 2

No. | smiles | UUG fidelity
25 | COc1cccc(S(=O)(=O)N2CC[C@@H]3[C@H]2c2cc(C#Cc4cccnc4)ccc2N[C@@H]3CO)c1 | -22
26 | C[C@@H]1CN([C@H](C)CO)C(=O)c2cc(NS(=O)(=O)c3ccccc3)ccc2O[C@@H]1CN(C)Cc1ccc(C(F)(F)F)cc1 | 30
27 | C/C=C/c1ccc([C@@H]2[C@H]3CN(C(=O)Nc4ccccc4F)CCCCN3[C@H]2CO)cc1 | 18
28 | C[C@@H]1CN([C@@H](C)CO)C(=O)c2cccc(NS(=O)(=O)c3cn(C)cn3)c2O[C@@H]1CN(C)Cc1ccncc1 | -9
29 | CCC(=O)N1CC[C@@H]2[C@H]1c1cc(-c3cccc(OC)c3)ccc1N(C)[C@@H]2CO | -3
30 | C[C@@H]1CN([C@@H](C)CO)C(=O)Cc2cc(NC(=O)Nc3ccc(F)cc3)ccc2O[C@@H]1CN(C)Cc1ccncc1 | -16
31 | COc1ccccc1-c1ccc([C@@H]2[C@H](CO)N3CCCCN(C(=O)c4ccncc4)C[C@@H]23)cc1 | 5
32 | Cc1noc(C)c1NC(=O)N(C)C[C@@H]1Oc2ccc(NS(=O)(=O)c3cccs3)cc2C(=O)N([C@H](C)CO)C[C@@H]1C | -7
33 | C[C@@H]1CN([C@H](C)CO)C(=O)Cc2cc(NC(=O)Cc3ccccc3)ccc2O[C@H]1CN(C)S(=O)(=O)c1ccc(Cl)cc1 | -7
34 | C[C@@H]1CN([C@H](C)CO)C(=O)c2cc(NS(=O)(=O)c3cccs3)ccc2O[C@@H]1CN(C)C | -13
35 | O=C(C[C@@H]1CC[C@@H]2[C@H](COC[C@H](O)CN2S(=O)(=O)c2ccc(Cl)cc2)O1)N[C@H]1CCN(Cc2ccccc2)C1 | 2
36 | O=C(CC1CC1)N1[C@H](CO)[C@H]2c3ccccc3N(S(=O)(=O)c3ccccc3F)C[C@H]21 | -2

Compounds 14 to 24 of the list above:
No. | smiles | UUG fidelity
14 | C/C=C/c1ccc([C@@H]2[C@@H](CO)N[C@@H]2CN(C(=O)C2CCCC2)C(C)C)cc1 | -5
15 | COc1ccccc1CNC(=O)C[C@H]1CC[C@@H]2[C@H](COC[C@@H](O)CN2C(=O)Nc2ccc(Cl)cc2)O1 | 9
16 | Cc1ccccc1S(=O)(=O)N1C[C@H](O)COC[C@@H]2O[C@@H](CC(=O)N3CCCCC3)CC[C@H]21 | 5
17 | CCC(=O)N1C[C@H](C)[C@H](OC)CN(C)C(=O)c2cc(NC(=O)C3CCOCC3)ccc2OC[C@H]1C | -17
18 | CCCNC(=O)N1C[C@H]2[C@@H](c3ccccc31)[C@@H](CO)N2Cc1cccc(OC)c1 | -8
19 | COCCNC(=O)C[C@@H]1CC[C@H]2[C@@H](COc3ccc(NC(=O)c4cnccn4)cc3C(=O)N2C)O1 | 6
20 | COCC(=O)Nc1ccc2c(c1)C(=O)N(C)[C@@H]1CC[C@H](CC(=O)NCCCN(C)C)O[C@H]1CO2 | 0
21 | C[C@@H]1CN([C@H](C)CO)C(=O)c2c(c3ccccc3n2C)-c2ccccc2CO[C@H]1CN(C)S(=O)(=O)c1ccc(F)cc1 | 0
22 | CO[C@H]1CN(C)C(=O)c2cc(NC(=O)C3CC3)ccc2OC[C@H](C)N(C(C)=O)C[C@H]1C | 8
23 | O=C(c1ccccn1)N1C[C@@H]2[C@H](c3ccccc31)[C@H](CO)N2C(=O)Nc1ccccc1F | 10
24 | O=S(=O)(c1ccccc1)N1CCCCN2[C@H](CO)[C@H](c3ccc(-c4cncnc4)cc3)[C@@H]2C1 | 2

The list continues:
No. | smiles | UUG fidelity
37 | O=C(C[C@@H]1CC[C@H]2[C@@H](COC[C@H](O)CN2C(=O)Cc2ccccc2)O1)NC1CCC1 | -3
38 | O=C(C[C@H]1CC[C@H]2[C@@H](COC[C@@H](O)CN2C(=O)Nc2cccc(Cl)c2)O1)NCC1CCCCC1 | 7
39 | COc1cccc(S(=O)(=O)N2CCCCN3[C@H](CO)[C@@H](c4ccc(-c5cncnc5)cc4)[C@H]3C2)c1 | -7
40 | C/C=C/c1ccc([C@@H]2[C@@H](CN(C)C(=O)CC)N(C(=O)C3CC3)[C@H]2CO)cc1 | 93
41 | Cc1noc(C)c1NC(=O)Nc1cccc2c1O[C@H](CN(C)Cc1ccc(-c3ccccc3)cc1)[C@@H](C)CN([C@@H](C)CO)C2=O | 21
42 | O=C(c1cccc(F)c1)N1CC[C@@H]2[C@@H](CO)Nc3ccc(-c4cccc(F)c4)cc3[C@@H]21 | -9
43 | CN1C[C@@H]2[C@H](c3ccccc31)[C@@H](CO)N2C(=O)C1CCCCC1 | -1
44 | OC[C@H]1[C@@H](c2ccc(-c3ccccc3F)cc2)[C@@H]2CN(Cc3cncnc3)CCCCN12 | -7
45 | O=S(=O)(Cc1ccccc1)N1CCCCN2[C@H](C1)[C@H](c1ccc(-c3ccncc3)cc1)[C@@H]2CO | -8
46 | CC(C)NC(=O)N1[C@H](CO)[C@H]2c3ccccc3N(C(=O)Nc3ccc(Cl)cc3)C[C@H]21 | -10
47 | Cc1ccc(S(=O)(=O)N(C)C[C@@H]2Oc3ccc(NC(=O)Nc4ccccc4)cc3CC(=O)N([C@@H](C)CO)C[C@H]2C)cc1 | -3
48 | C[C@H](O)C#Cc1ccc([C@H]2[C@@H](CO)N3CCCCN(C(=O)Nc4ccccc4)C[C@H]23)cc1 | -1

No. | smiles | UUG fidelity
49 | CCCNC(=O)C[C@@H]1CC[C@@H]2[C@@H](COc3ccc(NC(=O)c4cccs4)cc3C(=O)N2C)O1 | -29
50 | O=C(Nc1ccc(F)cc1)N1CCCCN2[C@H](CO)[C@@H](c3ccc(-c4ccccc4F)cc3)[C@@H]2C1 | 2
51 | C[C@@H]1CN([C@@H](C)CO)C(=O)c2cc(NC(=O)Nc3ccc4c(c3)OCO4)ccc2O[C@@H]1CN(C)S(=O)(=O)c1ccc(F)cc1 | -13
52 | CNC[C@@H]1Oc2c(NC(=O)c3cc(C)nn3C)cccc2C(=O)N([C@@H](C)CO)C[C@H]1C | -4
53 | C[C@@H]1CN([C@@H](C)CO)C(=O)Cc2cc(NC(=O)Cc3ccccc3)ccc2O[C@@H]1CN(C)Cc1ccncc1 | -2
54 | CCCNC(=O)[C@@H]1[C@@H](CO)[C@@H]2Cn3c(ccc(-c4cccc(OC)c4)c3=O)[C@H]1N2C(=O)NCCC | 4
55 | CCNC(=O)C[C@@H]1CC[C@@H]2[C@H](COC[C@H](O)CN2C(=O)c2cccnc2)O1 | -6
56 | O=C(Nc1cc(F)ccc1F)N1CCCCN2[C@@H](CO)[C@@H](c3ccc(C4=CCCCC4)cc3)[C@@H]2C1 | 5
57 | COc1ccc(C#Cc2ccc([C@H]3[C@H](CO)N4CCCCN(C)C[C@@H]34)cc2)cc1 | 3
58 | CCCNC(=O)N1C[C@H]2[C@@H](c3ccccc31)[C@H](CO)N2C(=O)Cc1ccccn1 | 41
59 | C[C@H]1CN([C@@H](C)CO)C(=O)c2cc(NS(=O)(=O)c3cn(C)cn3)ccc2O[C@@H]1CN(C)S(C)(=O)=O | -15
60 | Cc1noc(C)c1NC(=O)N(C)C[C@@H]1Oc2c(NC(=O)C3CCOCC3)cccc2C(=O)N([C@@H](C)CO)C[C@@H]1C | -18

Part of the list above, with the structure last.
cpd | UUG fidelity | SMILES
53 | -2 | C[C@@H]1CN([C@@H](C)CO)C(=O)Cc2cc(NC(=O)Cc3ccccc3)ccc2O[C@@H]1CN(C)Cc1ccncc1
54 | 4 | CCCNC(=O)[C@@H]1[C@@H](CO)[C@@H]2Cn3c(ccc(-c4cccc(OC)c4)c3=O)[C@H]1N2C(=O)NCCC

The listing continues:
No. | smiles | UUG fidelity
61 | O=C(C1CCCCC1)N1CC[C@@H]2[C@H]1c1cc(C#Cc3ccc(F)cc3)ccc1N[C@@H]2CO | -4
62 | Cc1ccc(S(=O)(=O)Nc2ccc3c(c2)CC(=O)N([C@H](C)CO)C[C@@H](C)[C@@H](CN(C)Cc2ccncc2)O3)cc1 | -15
63 | O=C(NCC(F)(F)F)[C@H]1[C@H](CO)[C@H]2Cn3c(cccc3=O)[C@@H]1N2C(=O)C1CCC1 | 2
64 | Cc1noc(C)c1NC(=O)Nc1ccc2c(c1)CC(=O)N([C@@H](C)CO)C[C@@H](C)[C@H](CN(C)Cc1ccc(Cl)c(Cl)c1)O2 | 17
65 | CCNC(=O)[C@H]1[C@H](CO)[C@H]2Cn3c(ccc(-c4ccccc4)c3=O)[C@@H]1N2Cc1ccccc1 | 19
66 | Cc1noc(C)c1NC(=O)N(C)C[C@H]1Oc2c(NC(=O)Nc3ccc4c(c3)OCO4)cccc2C(=O)N([C@@H](C)CO)C[C@H]1C | 7
67 | COCC(=O)Nc1ccc2c(c1)OC[C@H](C)N(C(=O)c1ccccc1F)C[C@@H](C)[C@H](OC)CN(C)C2=O | 6
68 | C[C@H]1CN([C@@H](C)CO)C(=O)c2cc(NC(=O)NC3CCCCC3)ccc2O[C@H]1CN(C)Cc1ccc(C(=O)O)cc1 | -9
69 | COc1ccc(S(=O)(=O)N(C)C[C@H]2Oc3ccc(NC(=O)c4ccncc4)cc3C(=O)N([C@@H](C)CO)C[C@@H]2C)cc1 | 2
70 | N#Cc1ccc(-c2ccc3c(c2)[C@@H]2[C@@H](CCN2S(=O)(=O)c2ccccc2F)[C@H](CO)N3)cc1 | 3
71 | C[C@@H]1CN([C@H](C)CO)C(=O)c2cc(NC(=O)CCN3CCOCC3)ccc2O[C@H]1CN(C)C(=O)Nc1ccc(C(F)(F)F)cc1 | -17
72 | COc1ccccc1S(=O)(=O)N1CC[C@@H]2[C@H]1c1cc(-c3ccc(F)cc3)ccc1N[C@@H]2CO | -11

No. | smiles | UUG fidelity
73 | C[C@H]1CN([C@@H](C)CO)C(=O)c2cccc(NC(=O)C3CCOCC3)c2O[C@H]1CN(C)Cc1ccc(-c2ccccc2)cc1 | -3
74 | CN1C[C@@H]2[C@H](c3ccccc31)[C@H](CO)N2Cc1ccccc1Cl | 5
75 | C[C@H]1CN([C@@H](C)CO)C(=O)c2cc(NC(=O)NC3CCCCC3)ccc2O[C@H]1CN(C)Cc1ccc(Oc2ccccc2)cc1 | 15
76 | O=C(c1ccccc1)N(CC1CCC1)C[C@@H]1N[C@H](CO)[C@@H]1c1ccccc1 | 4
77 | C[C@@H]1CN([C@@H](C)CO)C(=O)c2cc(NS(C)(=O)=O)ccc2O[C@H]1CN(C)S(=O)(=O)c1cccs1 | -5
78 | CCN(C[C@H]1N[C@@H](CO)[C@@H]1c1ccccc1)C(=O)c1ccncc1 | -5
79 | O=C(c1cccc(F)c1)N1CCCCN2[C@H](C1)[C@H](c1ccc(-c3cccnc3)cc1)[C@@H]2CO | -7

Assay outcomes deposited in PubChem by Broad Institute.
